Screening results as filed in PubChem.
26S disassembly = blocks ATP-dependent breakdown of the yeast 26S proteasome; anti-FLAG beads, GFP-proteasome disassembly, flow cytometry; inhibition of disassembly, % (test concentration not listed); actives 0.2% (n = 24,000);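 active means above 40%; inconclusive means likely self-fluorescent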;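 further: plate controls were ATP control with full disassembly for no effect and ATP-gamma-S intact proteasomes for full effect; higher percent means more bead fluorescence retained so stronger block of disassembly; stock transfer was 100 nL into about 10 µL; wells with too few beads may also be inconclusive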
VCAM-1 up = enhancers of VCAM-1 display on endothelial cells, cell-based, plate reader, pooled HUVEC, TNFa stimulus (AID 455); HUVEC TNFa-induced VCAM-1 immunofluorescence, plate reader; numbers were filed only for top-ranked candidate wells; augmentation, % at 5 µM; actives 0.2% (n = 10,000);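 active means a compound raising TNF-alpha-driven VCAM-1 surface staining, with its hit status upheld on visual or statistical review; inactive means the rest, including hits rejected on review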;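 further: 0% = TNFa with vehicle and 100% = strongest image-checked hit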
Numbers without * were called inactive; i = inactive; ? = inconclusive; / = not tested or not shown.

canonical_smiles	26S disassembly	VCAM-1 up
Cc1ccc(-c2nc(CS(=O)CC(=O)N3CCN(c4ncccn4)CC3)c(C)o2)cc1 (configuration not stated)	4.6	/
CCN(C(=O)Cn1c(=O)oc2ccccc21)c1cccc(C(F)(F)F)c1	-1.5	/
COc1ccc(C)cc1NC(=O)CN1CCN(S(=O)(=O)c2ccc(C(C)C)cc2)CC1	0.6	/
CC(C)(C)n1nc2c(c1NC(=O)c1ccco1)CS(=O)C2 (configuration not stated)	0.2	/
CCN(CC)c1ccc(C=N/C(C#N)=C(\N)C#N)cc1	?	/
CCN1C(=O)OC2(CCCCC2)C1(C)O (configuration not stated)	-2.0	i
O=C(NCCCn1ccnc1)c1noc2c1CCc1ccccc1-2	-0.8	/
COc1cc(C(=O)OCC(=O)N(C)Cc2ccccc2)cc(OC)c1OC	0.0	i
CCOC(=O)c1c(NC(=O)COC(=O)c2c(C)noc2C)sc2c1CCC2	-1.0	i
Cc1ccccc1N(C)S(=O)(=O)c1ccc2[nH]cc(C(=O)NCC3CCCO3)c(=O)c2c1 (configuration not stated)	0.1	i
CCOC(=O)c1nnn(CC(=O)Nc2cc(F)ccc2F)c1C(=O)OCC	-2.6	/
CN1CCN(c2nc(Nc3cccc(C(F)(F)F)c3)nc(N3CCOCC3)n2)CC1	0.5	/
COc1cc2c(C#N)c(N3CCN(c4ccccc4OC)CC3)nc(N)c2c(N)n1	3.6	i
CCOC(=O)CSc1nnc(CNC(=O)c2cccs2)n1Cc1ccccc1	-1.5	/
CCOC(=O)c1sc2ncnc(N3CCN(C(=O)OCC)CC3)c2c1C	-1.3	/
CC(C)OCCCNC(=O)CCN1C(=O)COc2ccccc21	0.8	/
COc1ccc(C2C(C(=O)Nc3ccccn3)=C(C)Nc3ncnn32)c(OC)c1 (configuration not stated)	0.6	/
CCn1c(SCC(=O)c2ccc(OC)cc2)nnc1C(C)NC(=O)c1ccc(OC)cc1 (configuration not stated)	1.2	i
COC(=O)/C=c1\sc2ncnn2c1=O	2.5	i
FC(F)(F)c1cccc(N2CCN(c3ccc4nnc(-c5ccccc5)n4n3)CC2)c1	0.1	/
CCC(C)NC(=O)C1CCN(S(=O)(=O)c2cccc3cccnc23)CC1 (configuration not stated)	-0.1	/
O=C(NC1CCCCC1)C1CCCN1S(=O)(=O)c1cccc2nsnc12 (configuration not stated)	0.8	/
CCCCOc1ccc(-c2ncc(Cl)cn2)cc1	-3.0	24
CCCS(=O)(=O)N1CCCC(C(=O)NCCCN2CCN(c3cccc(Cl)c3)CC2)C1 (configuration not stated)	0.4	/
COc1ccc(OC)c(S(=O)(=O)NCc2csc(-c3ccccc3)n2)c1	-1.2	/
CCOC(=O)N1CCN(S(=O)(=O)c2ccc3[nH]cc(C(=O)O)c(=O)c3c2)CC1	1.0	/
O=C(NC1CCCCCCC1)c1ccccc1O	-0.2	/
Cc1ccc2nc(-c3cccnc3)oc2c1	2.2	/
O=C(NCCCCNC(=O)c1c(F)c(F)c(F)c(F)c1F)c1c(F)c(F)c(F)c(F)c1F	1.3	i
O=C(O)CN1C(=O)C2(OCCCO2)c2ccccc21	-2.7	i
CC(C)C[C@H](NC(=O)Nc1cccc(C(F)(F)F)c1)C(=O)O	0.3	i
O=S1(=O)N=CN(Cc2cccc(F)c2)c2ccccc21	0.1	/
Cc1cccn2c(=O)c3cc(C(=O)N4CCN(C(=O)c5ccco5)CC4)n(C)c3nc12	-0.2	/
CCOC(=O)c1c(C)c(C(=O)Nc2ccc(N(C)C)cc2)c(C)n1CC	0.3	/
CCN1C(=O)CSc2ccc(C(=O)OC)cc21	-0.5	/
Cc1ccnc(NC(=O)CCC(=O)N(CC(=O)NC(C)(C)C)C2CCCC2)c1	-2.3	i
COC(=O)c1cc2ccsc2n1CC(=O)Nc1cc(C)cc(C)c1	-2.1	i
Cc1ccc(NC(=O)c2cc(-c3ccco3)on2)cc1	-0.5	/
CCn1c2ccccc2c2cc(Nc3cc(C)nc4ncnn34)ccc21	5.3	i
CCCC(CCC)C(=O)OC1C[C@H]2CC[C@@H](C1)[N+]2(C)C (some centres not stated)	0.2	i

Four entries from above in a different format.
> O=C(NCCCCNC(=O)c1c(F)c(F)c(F)c(F)c1F)c1c(F)c(F)c(F)c(F)c1F
  26S disassembly: 1.3	VCAM-1 up: i
> CCCS(=O)(=O)N1CCCC(C(=O)NCCCN2CCN(c3cccc(Cl)c3)CC2)C1 (configuration not stated)
  26S disassembly: 0.4	VCAM-1 up: /
> Cc1ccnc(NC(=O)CCC(=O)N(CC(=O)NC(C)(C)C)C2CCCC2)c1
  26S disassembly: -2.3	VCAM-1 up: i
> CCn1c2ccccc2c2cc(Nc3cc(C)nc4ncnn34)ccc21
  26S disassembly: 5.3	VCAM-1 up: i

The results go on:
canonical_smiles	26S disassembly	VCAM-1 up
COc1ccc(CCn2c(SCC(=O)Nc3cc(C)on3)nc3ccccc3c2=O)cc1OC	-1.6	/
CCOc1ccccc1OCCCCN1CCCC1	0.2	i
Cc1noc(C)c1C(=O)Nc1ccc(Cl)cc1C(F)(F)F	-0.6	i
COc1ccc(-c2c(C)nn3c(N4CCC(C(=O)N5CCCCC5)CC4)cc(C)nc23)cc1OC	-1.4	/
COc1cccc(NC(=O)CCCn2c(=O)[nH]c3ccccc3c2=O)c1	-0.9	/
CCOc1ccc(N(C(C)=O)C2C=CS(=O)(=O)C2)cc1 (configuration not stated)	1.6	i
O=C(Nc1ccon1)c1csc2c1CCCC2	1.5	i
CC1CN(C2CCCCC2)c2nc3c(c(=O)[nH]c(=O)n3C)n2C1 (configuration not stated)	-3.5	i
CN(C)S(=O)(=O)c1ccc2c(c1)c(=O)c(C(=O)NCCCN1CCCCCC1)cn2C	0.8	i
COc1ccc(C(=O)CN2CCN(c3ccc(F)cc3)CC2)cc1OC	0.7	/
CCc1ccc(-n2c(SCC(=O)Nc3cc(C)[nH]n3)nc3[nH]ncc3c2=O)cc1	0.0	/
C=CCN(C(=O)CNC(=O)c1ccco1)C(C(=O)NC1CCCCC1)c1ccccc1F (configuration not stated)	0.9	i
CCCCOc1ccccc1Cn1c(=O)oc2ccccc21	0.7	/
CCOc1cc2c(cc1OCC)C(C(=O)O)C(c1cc(OC)c(OC)c(OC)c1)N(C)C2=O (configuration not stated)	-0.5	/
CCCCN(C(=O)NC(=O)Nc1ccccc1C)S(C)(=O)=O	0.0	/
O=C(NC1CCS(=O)(=O)C1)N1CCCCC1 (configuration not stated)	-0.4	i
Cc1ccc(-c2nc3c(=O)n(C)c4ccccc4c3o2)cc1	1.3	/
O=C(Cn1c(C(=O)NCC2CCCO2)cc2sccc21)c1ccccc1 (configuration not stated)	-1.3	i
COc1ccccc1OCCSc1nc2ccccc2c(=O)[nH]1	-1.3	i
Cn1c(=O)oc2cc(S(=O)(=O)NCCC(=O)NCCc3ccc(Cl)cc3)ccc21	-0.4	/
Cc1ccccc1Nc1cc2ccccc2c(=O)[nH]1	2.9	i
CCOC(=O)CNc1nc(C#N)nc(N2CCOCC2)n1	-0.2	/
c1ccc(Cc2nnc3sc(-c4ccc5c(c4)OCCO5)nn23)cc1	2.5	/
COC1CCCCC1NS(=O)(=O)c1ccccc1 (configuration not stated)	1.3	i
COC(=O)C1CN(S(=O)(=O)c2ccc(C)cc2)CCN1S(=O)(=O)c1ccc(C)cc1 (configuration not stated)	0.3	/
CCCCn1c(CN2CCN(C(=O)OCC)CC2)nc2c1c(=O)[nH]c(=O)n2C	-0.9	/
Cn1c(=O)oc2cc(S(=O)(=O)NC3CCCCCCC3)ccc21	-0.7	/
CCN(CC)C(=O)C1=C(C)Nc2nnnn2C1c1cccnc1 (configuration not stated)	0.8	i
O=C(NCc1cccnc1)C1CCCCN1S(=O)(=O)c1ccc(F)cc1 (configuration not stated)	-0.7	/
Cc1cccc(-c2c3c(=O)n(C)c(=O)n(C)c3cn2-c2ccc(O)cc2)c1	0.0	i
Cc1ccc(C)c(-n2c(CNC(=O)c3ccco3)nnc2SCC(=O)Nc2nnc(C)s2)c1	-0.1	i
Cc1ccc(NC(=O)C2CCCN(S(=O)(=O)c3cnc[nH]3)C2)c(Br)c1 (configuration not stated)	0.6	i
Cc1nnc2n(Cc3ccccc3)c(=O)c3c4c(sc3n12)COC(C(C)C)C4 (configuration not stated)	-1.0	i
Cn1c(SCC(N)=O)nnc1C1CCN(C(=O)NCc2ccccc2)CC1	0.7	i
CS(=O)(=O)N1CCCC(C(=O)NCCCN2CCc3ccccc3C2)C1 (configuration not stated)	0.7	i
Cc1cc(SCC(N)=O)nc(SCC(=O)c2ccccc2)n1	-0.2	i
CN(CC(=O)NCCC1=CCCCC1)S(=O)(=O)c1ccc2c(c1)CCC(=O)N2	1.2	i
COc1ccc(NC(=O)c2oc3ccc(S(=O)(=O)N4CCC5(CC4)OCCO5)cc3c2C)cc1	1.4	i
Cc1cc2n(n1)C(c1ccccc1)Nc1ccccc1-2 (configuration not stated)	1.2	i
Cc1ccc(C)c(NC(=O)CS(=O)(=O)c2cn(C)c3ccccc23)c1	1.2	/
Cn1c(=O)n(CC(=O)OCc2ccccc2)c(=O)c2c1nc1n2CCCN1C1CCCCC1	-0.6	i
CCCCn1c(CN2CCN(c3cccc(Cl)c3)CC2)nc2c1c(=O)[nH]c(=O)n2C	0.2	/
CCOc1ccccc1Oc1c(C)oc2cc(OC(=O)N3CCOCC3)ccc2c1=O	-0.1	/
CCOC(=O)CCn1nc(-c2ccccc2)cc1N	0.1	/
Cc1cc2ncc(-c3ccc(Cl)cc3)c(N)n2n1	-0.1	i
O=S(=O)(NCCNS(=O)(=O)c1cccs1)c1cccs1	-1.6	/
CCOC(=O)C1=C(C)Nc2nc(C)nn2C1c1ccc(OCC)c(OC)c1 (configuration not stated)	7.6	/
CCN(C(=O)c1cccs1)c1nnc(-c2ccncc2)s1	-2.1	i
OCCCc1nc2n(n1)C(c1ccccc1)C=C(c1ccc(F)cc1)N2 (configuration not stated)	1.0	/
COc1ccc(-n2nc(C(=O)N3CCC(C#N)CC3)c3c4ccccc4n(C)c3c2=O)cc1	1.6	/
Cc1cc2ncn(C(=O)c3c(-c4ccccc4)noc3C)c2cc1C	0.0	i
CCOC(=O)N1CCN(C(=O)CN2C(=O)CC(C)(C)S(=O)(=O)c3ccccc32)CC1	-0.9	/
COc1ccccc1-c1nnc(NC(=O)c2ccc(S(=O)(=O)N(C)C)cc2)o1	-0.1	/
COc1cccc(-c2nc3n(n2)C(c2cccs2)C(C(=O)Nc2cccnc2)=C(C)N3)c1 (configuration not stated)	-0.4	i
Cc1ccc(-c2nnc(N3CCN(C(=O)CN4C(=O)c5ccccc5C4=O)CC3)c3ccccc23)cc1	1.9	i
CC1Cc2nc(SCC(=O)N3CCc4ccccc43)n(C)c(=O)c2S1 (configuration not stated)	2.6	/
Cn1c(=O)cc(OCCCC(=O)NCc2ccco2)c2ccccc21	-0.5	/
CCC(C)C(NC(=O)C1CCC(C)CC1)C(=O)NC(C(=O)OC)C(C)C (configuration not stated)	-0.7	/
Nc1nnc(N2CCc3ccccc32)s1	-0.4	/
Cc1ccc(C2CC(c3cccc(Br)c3)n3nc(N)nc3N2)cc1 (configuration not stated)	0.7	/

Other results follow.
canonical_smiles	26S disassembly	VCAM-1 up
COc1cccc(-c2nc(CS(=O)(=O)CC(=O)N3CCN(C)CC3)c(C)o2)c1	-0.2	/
Cc1ccc2nc(/C(C#N)=N/O)[nH]c2c1	19	i
O=C(C1CC1)N1CCN=C1SCc1cccc(F)c1	-4.0	/
Cc1ccc(Nc2nc(C3CC3)cs2)cc1	-0.8	/
N#CC1=C(SCC(=O)NC2CCCCC2)NC(=O)CC1c1ccco1 (configuration not stated)	-1.0	i
CCN(CC)C(=O)Oc1ccc(NC(C)=O)cc1	1.0	i
O=C(Cn1cnc2c(nnn2Cc2ccc(F)cc2)c1=O)NCc1ccco1	-1.0	/
Cc1ccc(-n2ncc3c(N4CCN(c5ccc(F)cc5)CC4)ncnc32)c(C)c1	2.2	i
CCOC(=O)N1CCC(NC(=O)Cn2c3ccccc3c3cn[nH]c(=O)c32)CC1	-1.9	/
COc1ccc(NC(=O)CC2SC(=Nc3ccccc3)NC2=O)c(OC)c1 (configuration not stated)	0.4	/
CC(=O)C1C(c2ccc(F)c(F)c2)NC(=O)NC1(O)C(F)(F)F (configuration not stated)	-2.1	/
O=C(Cn1cc2c(n1)CCCC2)NCCCN1CCN(c2ccccc2F)CC1	3.9	/
O=C(Nc1ccccc1C(F)(F)F)N1CCC(N2CCCCC2)CC1	0.3	/
CCc1noc(C)c1C(=O)N1CC(C)OC(C)C1 (configuration not stated)	0.6	/
Cc1ccc(CS(=O)(=O)Cc2ccc(C(=O)NCC3CCCO3)o2)cc1 (configuration not stated)	-0.2	/

An excerpt of these results, with two lines to a compound.
Order of results: 26S disassembly, VCAM-1 up
CCOC(=O)N1CCC(NC(=O)Cn2c3ccccc3c3cn[nH]c(=O)c32)CC1
→ -1.9, /
COc1ccc(NC(=O)CC2SC(=Nc3ccccc3)NC2=O)c(OC)c1 (configuration not stated)
→ 0.4, /
CC(=O)C1C(c2ccc(F)c(F)c2)NC(=O)NC1(O)C(F)(F)F (configuration not stated)
→ -2.1, /

An excerpt; count on the stated rates, not on these rows.
